VDR inh: vitamin D3 receptor (human) inhibition; P11473; VDR-SRC2-3 peptide fluorescence polarization, 2 h; Potency, µM, inactives show max response, negative = inhibition, most hits filed as inhibitors; 400,000 tested, 0.93% active; AID 504847; active means well fitted inhibition curve with a large enough effect; inconclusive means small, poorly fitted or top-dose-only effect, or another doubt; inactive means no such curve, though single readings can be large or run the other way; further: series mostly up to about 120 µM
Target sequence (P11473 whole entry, looked up): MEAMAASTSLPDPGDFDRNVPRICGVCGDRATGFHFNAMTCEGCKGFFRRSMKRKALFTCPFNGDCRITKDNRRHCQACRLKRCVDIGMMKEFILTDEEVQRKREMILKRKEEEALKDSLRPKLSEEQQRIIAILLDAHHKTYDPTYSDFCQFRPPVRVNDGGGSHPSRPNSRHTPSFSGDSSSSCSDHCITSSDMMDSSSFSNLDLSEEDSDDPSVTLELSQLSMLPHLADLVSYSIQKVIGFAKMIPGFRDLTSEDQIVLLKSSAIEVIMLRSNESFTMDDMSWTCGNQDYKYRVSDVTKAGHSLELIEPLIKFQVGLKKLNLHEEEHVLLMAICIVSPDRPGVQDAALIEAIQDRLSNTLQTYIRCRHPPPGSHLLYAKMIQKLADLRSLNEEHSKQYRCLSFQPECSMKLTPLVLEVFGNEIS
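The screen uses fluorescence polarization to detect compounds that interfere with recruitment of the SRC2-3 coactivator peptide to VDR; plates are read after 2 h at room temperature.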
* = called active by the depositor; ? = inconclusive; & = joins results of further samples. On the % scale 0 is the no-effect control and ±100 the full control effect; potency means the concentration at half of the fitted maximal effect. Only part of the results is shown. The share of hits here may be higher or lower than overall.

VDR inh | compound
-1% | COc1ccc(-c2cc(C(=O)Nc3ccccc3O)c3ccccc3n2)cc1
12% | CC(O)c1cccc(N=Cc2ccc3ccccc3c2O)c1 (stereo unspecified)
-10% | C[C@@H]1CCCCCCCCC(=O)OCCN(C(=O)OC(C)(C)C)[C@H](C)CCCCCCCCC(=O)OCCN1C(=O)OC(C)(C)C
1% | CCN(CC)c1ccc2c(C)c(CO)c(=O)oc2c1
-18% | Cn1c(N/N=C2\CCCc3ccccc32)nc2c1c(=O)n(Cc1ccccc1)c(=O)n2C
-5% | C[C@@H]1CN([C@@H](C)CO)C(=O)Cc2cc(NS(=O)(=O)c3ccccc3)ccc2O[C@H]1CN(C)Cc1ccncc1
-9% | CCC(=O)N1CCc2cc(Br)cc(S(=O)(=O)CCC(=O)Nc3ccc(C)c(F)c3)c21
? | CCCNC(=O)OCCC12CC3CC(CC(C3)C1)C2
0% | CCN(Cc1ccccc1)C(=O)Cc1c[nH]c2ccccc12
-6% | O=[n+]1cc(-c2ccc(Br)cc2)n([O-])c2c1CCC2
2% | Cc1cc(C)cc(NC(=O)c2sc3nc4n(c(=O)c3c2C)N=C(c2ccc(F)cc2)CS4)c1
? | CCCNS(=O)(=O)c1ccc2nc(NC(=O)c3ccc(F)cc3)sc2c1
3% | COCc1cc(C)c(C#N)c(=S)[nH]1
-12% | COc1ccc(OC)c(CNc2ncc(-c3ccc(Cl)cc3)n2C)c1
2% | CN(c1ccccc1)S(=O)(=O)c1cccc(NC(=O)CN2C(=O)NC3(CCCC3)C2=O)c1
4% | CCOC(=O)C1CCN(C(=O)Nc2ccc(NC(=O)C3CCN(C(=O)OCC)CC3)cc2)CC1
-2% | Cc1cccc(NC2=NCC(=O)N2Cc2cccs2)c1
6% | Cc1ccn2c(=O)c(C(=O)O)cnc2c1
2% | O=C(O)c1ccc(NCc2ccncc2)cc1
-28% | C#CCOc1c(Br)cc(/C=N/O)cc1OCC

Entries shown so far with a halogen (6):
VDR inh | compound
-9% | CCC(=O)N1CCc2cc(Br)cc(S(=O)(=O)CCC(=O)Nc3ccc(C)c(F)c3)c21
-6% | O=[n+]1cc(-c2ccc(Br)cc2)n([O-])c2c1CCC2
2% | Cc1cc(C)cc(NC(=O)c2sc3nc4n(c(=O)c3c2C)N=C(c2ccc(F)cc2)CS4)c1
? | CCCNS(=O)(=O)c1ccc2nc(NC(=O)c3ccc(F)cc3)sc2c1
-12% | COc1ccc(OC)c(CNc2ncc(-c3ccc(Cl)cc3)n2C)c1
-28% | C#CCOc1c(Br)cc(/C=N/O)cc1OCC

Ordered by value in VDR inh (high to low): three of the compounds above.
VDR inh | compound
12% | CC(O)c1cccc(N=Cc2ccc3ccccc3c2O)c1 (stereo unspecified)
2% | CN(c1ccccc1)S(=O)(=O)c1cccc(NC(=O)CN2C(=O)NC3(CCCC3)C2=O)c1
-28% | C#CCOc1c(Br)cc(/C=N/O)cc1OCC

Following part
VDR inh | compound
-7% | O=C(COC(=O)CNC(=O)c1ccccc1)Nc1nnc(-c2ccccc2)o1
3% | N#CC1=C(N)N(c2ccccc2C#N)C2=C(C(=O)CCC2)C1c1ccsc1 (stereo unspecified)
4% | O=C(c1ccco1)N(Cc1cccs1)c1ccc(F)cc1
7% | O=[N+]([O-])c1ccc(/C=N/n2c(C3CCCCC3)n[nH]c2=S)cc1
8% | CC(NC(=O)c1ccc(CS(=O)(=O)c2cccc(C(F)(F)F)c2)o1)c1ccc2c(c1)OCCO2 (stereo unspecified)
? | CCCOC(=O)c1ccc(NC(=O)CSC2=Nc3ccccc3C3CC=NN23)cc1 (stereo unspecified)
-8% | CC(C)(C)c1nc(SCC(=O)Nc2nc3c(s2)CCCC3)c2ccccc2n1
-5% | O=C(Nc1ccn(C2CC(OC(=O)c3ccccc3)C(CO)O2)c(=O)n1)c1ccccc1 (stereo unspecified)
-5% | CCn1c(C)c(C(=O)c2ccccc2)c(C#N)c1C(=O)O
-7% | Cc1ccc(-c2ccccc2NC(=O)CCl)o1
-7% | CC(C)(C)c1ccc(OCC(=O)NCCN2CCCC2)cc1
9% | Fc1cccc(Cl)c1CNCCSc1nnnn1-c1ccccc1
-9% | CN(CCO)C1=CC(=O)CC(C)(C)C1
-4% | COC(=O)c1[nH]cnc1C(=O)c1ccccc1
9% | COc1ccc2c(c1)O[C@H](c1ccc3c(c1)OCO3)[C@@H](OC(=O)NS(=O)(=O)c1ccc(C)cc1)C2=O
-22% | COc1ccc(C(=O)N/C(=C\c2cc(OC)c(OC)cc2[N+](=O)[O-])C(=O)NCC(=O)O)cc1
3% | CC1=CC(=O)N(c2ccn(C)n2)C1=O
2% | CCOC(=O)C(=O)NNc1cccc(C)c1C
2% | COc1ccc(NC(=O)Nc2ccc3c(c2)C(=O)N([C@@H](C)CO)C[C@@H](C)[C@@H](CN(C)S(=O)(=O)c2cn(C)cn2)O3)cc1
-6% | CC1CCCC(NC(=O)C2N(CCCN3CCCC3)C(=O)C3C(C(=O)Nc4ccc(Cl)cc4)C4C=CC32O4)C1C (stereo unspecified)
9% | O=S(=O)(NCCN1CCOCC1)c1ccc(-c2ccc(S(=O)(=O)NCCN3CCOCC3)cc2)cc1
0% | COc1ccc(C(=O)NCCc2ccc(C)cc2)cc1OC1CCN(C(C)=O)CC1
15% | O=C(Nc1ccc(Cl)cc1Cl)c1cc(S(=O)(=O)N2CCC3(CC2)OCCO3)ccc1F
-9% | CCOC(=O)c1cc(-c2ccc(C)cc2)n(CCC(=O)Nc2nc3c(C)cccc3s2)c1C
-10% | N[C@@H](C(=O)O)c1cc(O)ccc1Cl
12% | CCN(CC)S(=O)(=O)c1cccc(C(=O)NC(C(=O)Nc2nnc(C3CC3)s2)C(C)C)c1 (stereo unspecified)
6% | O=C(CN(Cc1ccccc1)S(=O)(=O)c1ccc(Br)cc1)NCc1ccco1
7% | O=C(COC(=O)c1cc([N+](=O)[O-])ccc1NCCO)c1ccc(Cl)cc1
-12% | CCOC(=O)C1=C(COC(=O)C(CC)Oc2ccccc2)NC(=O)NC1C (stereo unspecified)
-9% | Cc1nn2c(-c3ccccc3)ccnc2c1-c1ccccc1
-19% | COc1cc(NC(=O)Cn2ncc3c2-c2ccccc2OC3)cc(OC)c1OC
-26% | Cn1cccc1C(=O)N1CCC2(CC1)CN(c1ccccn1)C2
-9% | Cc1ccc(NS(=O)(=O)c2ccc(Cl)s2)nc1
7% | Cc1ccc(S(=O)(=O)N(C)C)cc1NC(=O)COC(=O)Cc1cccs1
-13% | COc1ccc(NC(=O)C2C3C=CC4(O3)C2C(=O)N(CCCN2CCCC(C)C2)C4C(=O)NC2CCCCC2)cc1 (stereo unspecified)
-19% | Cc1nc(CC(=O)NNS(=O)(=O)c2cccc(Cl)c2Cl)cs1
-6% | CCn1cc(CN2CCN(Cc3cccc(OC)c3)C(CCO)C2)c(C)n1 (stereo unspecified)
12% | Cc1ccc(NC(=O)C2CCN(S(=O)(=O)c3ccc4c(c3)NC(=O)C(C)S4)CC2)c(Cl)c1 (stereo unspecified)
-7% | Cc1ccc(C)c(S(=O)(=O)N2CCN(C(=O)CSC(=S)N3CCCC3)CC2)c1
1% | CCn1c(=O)cc(SCC(=O)NCCc2cccc(C)c2)c2ccccc21

An excerpt of these results, in markdown.
| SMILES | VDR inh |
| --- | --- |
| O=[n+]1cc(-c2ccc(Br)cc2)n([O-])c2c1CCC2 | -6% |
| Cc1cc(C)cc(NC(=O)c2sc3nc4n(c(=O)c3c2C)N=C(c2ccc(F)cc2)CS4)c1 | 2% |

The listing continues:
VDR inh | compound
10% | CC(Sc1nnc(N)s1)C(=O)NCc1ccc2c(c1)OCO2 (stereo unspecified)
-16% | CCN(CC)S(=O)(=O)c1ccc2c(c1)c(=O)c(C(=O)N1CCN(c3cc(Cl)ccc3C)CC1)cn2C
-10% | O=C(Cn1cnc2c(nnn2-c2ccc(F)cc2)c1=O)N1CCCC1
2% | COc1ccc(NC(=O)C2=CCN(S(=O)(=O)c3ccccc3)CC2)cc1OC
-20% | COc1ccc(C2CC(c3ccccc3)n3nc(NC(=O)c4cccs4)nc3N2)cc1 (stereo unspecified)
-19% | CCC(=O)N1N=C(c2ccc(C)o2)CC1c1ccc(N(C)C)cc1 (stereo unspecified)
-6% | CC1(C)CC(=O)C=C(Nc2ccccc2)C1
-11% | Cc1ccc(NC(=O)CN(C)C(=O)COC(=O)COc2ccc(C#N)cc2)cc1
10% | CN(C(=O)c1ccc(NC(=O)c2ccco2)cc1)c1ccccc1
9% | Cc1ccc(NC(=O)CSc2nnc(NC(=O)c3ccco3)s2)cc1
1% | COC(=O)C1=C(C)OC(N)=C(C#N)C1c1c(C)nn(C)c1C (stereo unspecified)
1% | C[C@@H](O)CC#Cc1ccc2oc(=O)c(-n3cc(-c4ccsc4)nn3)cc2c1
5% | COC(=O)c1c(-c2ccc(Br)cc2)noc1N
17% | Cc1cc(NC(=O)CN2C(=O)[C@@H]3[C@H](C2=O)[C@@H]2C[C@H]3C(Br)C2Br)no1 (stereo partly specified)
4% | COc1ccc(CCC(C)Nc2cccc(C)c2)cc1 (stereo unspecified)
-21% | COc1ccc(S(=O)(=O)N2CCOCC2)cc1NS(=O)(=O)c1ccc(F)c(F)c1
-13% | CC(C)COc1cccc(C(=O)NC(=S)NCc2cccnc2)c1
? | CC1=C(C(N)=O)S(=O)(=O)c2ccccc21
-1% | COc1ccccc1/C=C/c1onc(C)c1S(=O)(=O)N1CCC(C(=O)NC(C)C)CC1
-16% | CC(C)(C)OC(=O)N1CCN(C(=O)Nc2ccc3c(c2)OCCO3)CC1
-6% | COc1cccc(-c2csc(N3CCN(CC(=O)NNC(=O)c4ccco4)CC3)n2)c1
-6% | COC(=O)C1=C(C(=O)OC)[C@@H]2N(C)c3ccccc3[C@@]23C[C@@H](C(=O)OC)N(C(=O)c2cccs2)C3=N1
-4% | O=C(CN1C(=O)C2C3C=CC(C3)C2C1=O)NC1CCCc2ccccc21 (stereo unspecified)
-23% | COc1cccc(CN(c2ccccc2C(=O)O)S(=O)(=O)c2ccc(C)cc2)c1
25µM* | COC(=O)[C@@H]1[C@@H](C#N)C2(c3ccccc3-c3ccccc32)N(c2ccc(Cl)cc2)N1C#N
-14% | N#Cc1ccccc1COc1cccc2c1CCCC2O (stereo unspecified)
-4% | Cc1ccccc1CC1(CO)CCCN(C(=O)c2ccccc2Cl)C1 (stereo unspecified)
6% | O=C(Cn1cc(SCc2cccc(C(F)(F)F)c2)c2ccccc21)N1CCCCCC1
5% | Clc1cccc(CNCCCSc2ncccn2)c1Cl
-6% | CC1(C)S[C@@H]2[C@H](NC(=O)C(C(=O)O)c3ccccc3)C(=O)N2[C@H]1C(=O)O (stereo partly specified)
3% | Cc1ccc(N(CC(=O)NC2CCCC2)C(=O)CCC(=O)Nc2nc(C)cs2)cc1
17% | CCCCn1c(SCC(=O)N2c3ccccc3CCc3ccccc32)nc2c1c(=O)n(C)c(=O)n2C
4% | O=C(NCc1ccc2c(c1)OCO2)c1nnc(Cc2ccc(Cl)cc2)o1
-11% | CCCN(CCC)CCCNC(=O)Cn1cnc2sc(C)c(S(=O)(=O)N3CCOCC3)c2c1=O
-2% | CNC(=S)NC1CC2CCCC(C1)N2Cc1ccco1 (stereo unspecified)
? | COCCOCCn1c(/C=C/c2ccccc2)nc2ccccc21
? | CCOC(=O)/C=C/C(=O)OCC(=O)NC(c1ccccc1)c1ccccc1
-12% | CCOC(=O)C1CCN(C(=O)COC(=O)c2cc([N+](=O)[O-])ccc2N2CCOCC2)CC1
-16% | COc1ccc2nc(NC(=O)c3ccc(-n4nc(C)cc4C)cc3)sc2c1
-6% | Cn1cc(-c2nc3cnc(N4CCNCC4)nc3n(CCC#N)c2=O)c2ccccc21

Retrieved one by one from the list above:
VDR inh | compound
-6% | COc1cccc(-c2csc(N3CCN(CC(=O)NNC(=O)c4ccco4)CC3)n2)c1
-12% | CCOC(=O)C1CCN(C(=O)COC(=O)c2cc([N+](=O)[O-])ccc2N2CCOCC2)CC1

Following part:
VDR inh | compound
13% | CCC(CC)C(=O)c1c[nH]c(C(=O)O)c1
0% | CCC(C)OC(=O)C(C)Oc1ccc(-c2ccccc2)cc1 (stereo unspecified)
-20% | Cc1cccc(-c2oc3ccccc3c2C#CCCCCO)c1
-2% | N#Cc1cccc(Oc2ccc(-c3cnc4ccccc4n3)cc2)c1C#N
-8% | CCOC(=O)C1(Cc2cccc(OC)c2)CCN(C/C=C/c2ccccc2)CC1
8% | Cc1ccc(S(=O)(=O)NCCc2nnc3ccc(SCC(=O)Nc4c(C)cc(C)cc4C)nn23)cc1
2% | COc1ccc2oc(C(=O)N3CCN(S(=O)(=O)c4c(C)c(C)cc(C)c4C)CC3)c(C)c2c1
-5% | Cc1ccccc1OC1CCN(C(=O)c2cc(COc3ccccc3)on2)CC1
3% | Cc1ccc(C)c(C(C)NC(=O)c2ccncc2)c1 (stereo unspecified)
? | O=C(NCCCNC(=O)c1cccs1)c1cccs1
3%&-23% | CCOC(=O)Cn1c(=O)oc2cc(S(=O)(=O)NC(C)c3ccccc3)ccc21 (stereo unspecified)
-3% | COCCCNC(=S)NNC(=O)c1cccnc1
? | O=C(Nc1cccs1)Nc1ccc(Br)cc1F
2% | O=C(COC(=O)c1cnccn1)c1ccc(-c2ccccc2)cc1
? | COc1cc(OC)c2c(c1O)OC(c1ccccc1)CC2=O (stereo unspecified)
5% | Nc1[nH][nH]c(=O)c1N=Nc1cccc(Cl)c1
-8% | O=C(CSc1nc2ccccc2s1)Nc1ccc2c(c1)OCO2
-20% | CN(Cc1ccc(-n2cccn2)cc1)C(=O)c1cnn2c1NC(c1ccco1)CC2C(F)(F)F (stereo unspecified)
-5% | COc1ccc2c(c1)c(=O)c(C(=O)c1ccc(C)cc1)cn2Cc1ccccc1F
24% | CCCc1nc2oc3ccccc3c(=O)c2c(=O)n1CCCOC
3% | CCc1ccc(-n2nc(CO)c(C(=O)NC(C)c3ccc(Cl)cc3)n2)cc1 (stereo unspecified)

Bioassay records: PubChem, National Center for Advancing Translational Sciences (NCATS)
